Assay outcomes: PubChem BioAssay, National Center for Advancing Translational Sciences (NCATS)
TSHR ag: TSH receptor (human) agonism; 0.48% of 73,000 active; P16473; HEK293-CNG-TSHR cells (CNG channel as cAMP sensor), membrane potential dye, cAMP; Potency, µM (highest dose often 57.1 µM), without a hit: top-dose activation, most hits filed as activators; active = well fitted activation curve of enough size with the parental cells flat; inconclusive = any curve in the parental cells; inactive = parental cells flat and receptor cells flat or falling; note: potency is the fitted concentration of half-maximal effect; % of control where 0% means no effect; weak receptor curves with flat parental cells got no call and are not listed
Target sequence (P16473 whole entry, looked up): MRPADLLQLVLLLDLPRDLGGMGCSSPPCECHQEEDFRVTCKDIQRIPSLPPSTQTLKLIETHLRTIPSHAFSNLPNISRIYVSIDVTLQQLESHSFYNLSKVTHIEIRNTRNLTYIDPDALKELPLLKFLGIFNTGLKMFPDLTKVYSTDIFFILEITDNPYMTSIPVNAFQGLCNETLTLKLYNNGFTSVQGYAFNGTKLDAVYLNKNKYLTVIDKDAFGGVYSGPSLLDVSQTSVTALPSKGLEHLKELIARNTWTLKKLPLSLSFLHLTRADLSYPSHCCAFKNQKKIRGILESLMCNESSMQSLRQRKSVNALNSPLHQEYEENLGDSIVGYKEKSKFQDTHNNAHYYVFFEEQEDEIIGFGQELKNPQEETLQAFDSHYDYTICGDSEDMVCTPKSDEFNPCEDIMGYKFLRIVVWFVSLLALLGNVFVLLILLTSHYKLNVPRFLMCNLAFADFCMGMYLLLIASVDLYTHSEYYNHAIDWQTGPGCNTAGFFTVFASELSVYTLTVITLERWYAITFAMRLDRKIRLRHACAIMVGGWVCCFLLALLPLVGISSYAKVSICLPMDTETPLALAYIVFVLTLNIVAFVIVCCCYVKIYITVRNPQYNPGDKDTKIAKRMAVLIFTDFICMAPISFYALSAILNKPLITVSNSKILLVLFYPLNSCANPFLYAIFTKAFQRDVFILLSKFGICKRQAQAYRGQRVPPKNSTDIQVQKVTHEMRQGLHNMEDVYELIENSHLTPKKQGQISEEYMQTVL
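HEK 293 cells stably expressing TSHR and a cAMP-gated CNG channel; parental CNG-only cells as counterscreen. Cells preloaded 60 min with membrane potential dye plus 100 uM RO 20-1724, then compound 30 min; fluorescence read at 590 nm.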
AID923: qHTS Assay for Allosteric/Competitive Inhibitors of Caspase-1: Spectroscopic Profiling in AFC Spectral Region; compound fluorescence, AFC spectral region (405/520 nm); almost no hit is shown here; Potency, µM (doses to about 57.5 µM), for the others: at the highest dose fluorescence increase, hits mostly activators; 1.1% of 75,000 active; AID 923, 2007; active = well fitted activation curve with a large enough effect; inconclusive = small, poorly fitted or top-dose-only effect;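 note: potency is the fitted concentration of half-maximal effect; 0% is about no effect; scaled to a free AFC standard on each plate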
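Compound autofluorescence profiled at 405 nm ex/520 nm em during kinetic caspase 1 run (50 nM enzyme, 5 uM Ac-WEHD-AFC, HEPES pH 7.5, 10 mM DTT). Titration up to 57 uM; baseline from regression intercept, normalized to AFC standard curve.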
A647 fluor: A647 region autofluorescence; Compound fluorescence, A647 channel (570/671 nm), Tris buffer; max dye-equivalent concentration, M; 59,000 tested, under 10 active; AID 592; active means above 1 µM dye equivalent; inconclusive means 0.1 to 1 µM; inactive means 0.1 µM or less;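 note: values scaled relative to a standard on each plate; highest value over a series up to 38 µM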
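Tris 100 mM pH 8.0; cpd + A647 stds pin-transferred; 15 min RT; CCD imager, ex 570/em 671. Output = A647-equivalent conc. per cpd conc.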
A488 autofl: compound autofluorescence in A488 spectral region; compound autofluorescence, A488 spectral region, dye equivalency; hits give high values; max dye equivalency, M; 0.1% of 59,000 active; active = above 10 nM dye equivalent; inconclusive = 1 to 10 nM; inactive = 1 nM or less; about half of its hits are not listed in these tables;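 note: highest value over a series up to 38 µM; compound alone in buffer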
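Spectroscopic profiling in the A488 region: compounds in pH 8.0 Tris (100 mM), 15 min RT, CCD imaging with 480 nm excitation and 540 nm emission; responses normalized against A488 dye standards.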
Resorufin autofl: compounds fluorescent in resorufin spectral region; Compound fluorescence, resorufin region 547/598 nm, buffer; hits give high values; max dye-equivalent concentration, M; 0.04% of 59,000 active; AID 588; active = above 10 nM dye equivalent; inconclusive = 1 to 10 nM; inactive = 1 nM or less; a few of its hits are not listed in these tables; note: highest value over a series up to 38 µM
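Read-out: intrinsic compound fluorescence at ex 547/em 598 nm after 15 min at RT in pH 8.0 Tris (100 mM). Values expressed as resorufin-equivalent concentration from per-plate standard series.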
* marks the source's active call; other numbers are inactive results; i = inactive; ? = inconclusive; nt = no result given; & = joins results of further samples; [ ] = remark or other dose.

SMILES	TSHR ag	AID923	A647 fluor	A488 autofl	Resorufin autofl
CCOCC(O)CS(=O)Cc1ccccc1 (stereo not drawn)	?	-0.6%	nt	nt	nt
O=C(O)CNC(=O)c1ccc(OC(F)F)cc1	3%	0.2%	1e-09	i	i
c1ccc(-c2csc(N3CCCCCC3)n2)cc1	67%	0.8%	4.5e-08	i	i
Cc1ccc2nc(NC(=O)C3CCCN(S(=O)(=O)c4cnc[nH]4)C3)sc2c1 (stereo not drawn)	-15%	0.3%	nt	nt	nt
CCCn1c(SCC(=O)Nc2ccccc2N2CCCCC2)nc2c1c(=O)n(C)c(=O)n2C	?	-0.2%	2.4e-08	i	i
COc1cccc(-c2nnc(SCC(=O)N3CCCc4ccccc43)o2)c1	?	-0.2%	4e-08	i	i
C[C@H](Oc1ccc(Oc2cnc3ccc(Cl)cc3n2)cc1)C(=O)O	1%[11.4 µM]	-1.3%[11.5 µM]	1e-09&2.4e-08	i	i
Cn1c(-c2ccccc2)cnc1SCC(=O)NCc1ccco1	2%	-1.8%	2.7e-08	i	i
Cc1nnc2ccc(N3CCN(C(=O)c4ccccc4)CC3)nn12	6%	1.8%	nt	nt	nt
CCOC(=O)c1c(NC(N)=O)sc(C)c1C	20%	0.7%	1.1e-08	i	i
Cc1noc(C)c1CSc1nc2ccccc2s1	26%	-1.0%	5.4e-08	i	i
O=C(NC1CCCCC1)Nn1c(-c2ccccc2)nc2ccccc2c1=O	nt	nt	5.5e-09	i	i
Cc1c(C)c2c(c(C)c1O)CC[C@@](C)(CCC[C@@H](C)CCC[C@@H](C)CCCC(C)C)O2	-6%[25.6 µM]	3.1%[25.7 µM]	1e-09	i	i
CCn1c(SCC(=O)NCCc2ccccc2)nnc1-c1ccco1	7%[11.4 µM]	0.3%	4.2e-08	i	i
CCc1ccccc1N(CC)C(=O)CCc1nc(-c2ccc(C)cc2)no1	?	-0.8%	1.5e-09	i	i
c1cnc(NCCNc2ncccn2)nc1	-7%	-1.5%	1.8e-08	i	i
COc1ccc2c(c1)c(C(O)CN1CCN(Cc3ccc4c(c3)OCO4)CC1)c(C)n2C (stereo not drawn)	?	3.2%	4.7e-09	i	i
COC(=O)c1cccc(NC(=O)c2cc3sccc3n2C)c1	?	-0.4%	1e-09	i	i
CN1CCN(S(=O)(=O)c2ccc(N3CCN(S(=O)(=O)/C=C/c4ccccc4)CC3)nc2)CC1	-1%	-0.7%	1e-09	i	i
CCc1ccccc1Nc1nc(N)nc(CSCC(=O)c2cc(C)n(C)c2C)n1	?	1.6%	9.8e-09	i	i
Cc1ccc(S(=O)(=O)N[C@H](CO)C(=O)O)cc1	-2%[11.4 µM]	-0.1%[11.5 µM]	1e-09	i	i
CCOC(=O)c1cc2occc2n1CC(=O)NC1CCC(C)CC1 (stereo not drawn)	?	2.0%	1.6e-08	i	i
O=C1c2ccccc2C(O)N1Cc1ccc2c(c1)OCO2 (stereo not drawn)	2%	-1.7%	nt	nt	nt
CCc1ccc(NC(=O)c2cc(CC(C)C)on2)cc1	6%	2.0%	nt	nt	nt
CCN1C(=O)c2ccccc2S(=O)c2ccc(C(=O)NCc3ccccn3)cc21 (stereo not drawn)	4%	5.5%	nt	nt	nt
C=C(C)Cn1c(C2CC(=O)N(c3ccccc3F)C2)nc2ccccc21 (stereo not drawn)	28%	0.5%	nt	nt	nt
Cn1c(C(F)(F)F)nc2c(=O)oc3ccccc3c21	3%	-1.2%	2.8e-09	i	i
CC(C)(C)C1CCC2(CC1)NC(CO)(CO)CO2 (stereo not drawn)	6%	-1.2%	2.2e-08	i	i
COc1ccc(-c2noc(CCC(=O)NCCN3CCN(c4ccccc4F)CC3)n2)cc1	?	-0.3%	8.4e-09	i	i
C=CCSc1nc(N)c(C#N)c(-c2ccc(C)cc2)c1C#N	-17%	3.1%	3.6e-08	i	i
O=C(CN(c1ccccc1)S(=O)(=O)c1ccc(F)cc1)N1CCCCCC1	nt	-1.2%	2.9e-08	i	i
Cn1c(Oc2ccccc2NCc2cc(Br)ccc2O)cc(=O)n(C)c1=O	1%	-1.1%	9.2e-09	i	i
O=C(Nc1cccc2c1CCCC2)c1ccco1	?	4.2%	nt	nt	nt
Cc1ccc(C(=O)Nc2ccccc2C(=O)NC(CC(=O)O)C(=O)O)cc1 (stereo not drawn)	-1%	-0.8%	3.1e-08	i	i
COc1ccc(S(=O)(=O)N2CCOCC2)cc1C(=O)Nc1nc2ccccc2s1	19%	0.1%	4e-08	i	i
Cc1n[nH]c(C)c1S(=O)(=O)N(CC(=O)Nc1ccc2c(c1)OCCO2)c1ccc(C(C)C)cc1	?	-1.1%	nt	nt	nt
COc1ccc(NC(=O)N2CC3(CCNCC3)C2)cc1	-1%	0.9%	3.2e-09	i	i
CCCc1cc(C(=O)N(C2CCCCC2)C2CCCCC2)no1	20µM*	-1.0%	nt	nt	nt
Cc1nn(CC(=O)Nc2ccc3c(c2)nc(CN2CCCC2)n3C)c(=O)c2ccccc12	-1%	2.3%	4.8e-09	i	i
CN=C(NC#N)NCCSCc1csc(N=C(N)N)n1	2%	1.6%	nt	nt	nt
O=C(NCc1ccco1)c1cccs1	?	-0.3%	1.8e-08	i	i
O=c1cnc2cnc(N3CCNCC3)nc2n1Cc1cccs1	9%	2.3%	1.9e-08	i	i
COc1ccc(CC(=O)Nc2cccc(-c3nnc(-c4ccc(C)cc4)o3)c2)cc1OC	nt	-1.3%	1e-09	i	i
Cc1cc(NC(=O)c2cc(CC(C)C)on2)n(-c2ccccc2)n1	15%	-1.9%	nt	nt	nt
CCOC(=O)c1c(C)[nH]c(C(=O)CN2CCOCC2)c1C	-8%[11.4 µM]	0.1%	1.7e-09	i	i
O=C1C2C3C=CC(C3)C2C(=O)N1Cc1ccccc1 (stereo not drawn)	?	-0.1%	3.4e-08	i	i
FC(F)(F)C(Oc1nc(NC2CCCCC2)nc(N2CCOCC2)n1)C(F)(F)F	3%	-0.8%	4.6e-08	i	i
CCOC(=O)c1[nH]c2ccc(C)cc2c1N=C(C)N(C)C	?	1.2%	1e-09	i	i
O=c1cnc2cnc(Oc3cccc(Cl)c3)nc2n1C1CC1	21%	2.8%	3.1e-08	i	i
COc1ccc(O[C@H]2C=C[C@@H](c3ccccc3)O[C@H]2COC(=O)CC/C(C)=N\OC[C@@H](O)COCc2ccco2)cc1	5%[11.4 µM]	2.7%[11.5 µM]	nt	nt	nt
C=CCN1C(=O)N(/C=C/C)c2cccc3cccc1c23	?	1.5%	2.1e-08	i	i
Cc1ccc(S(=O)(=O)Nc2ccc3nc(-c4cccn4C)[nH]c3c2)cc1	6%	-0.1%	1e-09	i	i
Cc1cccc(NC(=O)c2ccccn2)c1C	2%	1.8%	1e-08	i	i
O=C(O)c1ccc(OCCn2ccnc2)cc1	nt	nt	1.2e-09	i	i
CCCN1CCN(CCCNC(=O)C2CCN(c3nnc(-n4cccc4)s3)CC2)CC1	-2%	-0.2%	2.3e-09	i	i
CCc1nc2sc(C)c(C)c2c(=O)n1CCO	-2%	2.5%	nt	nt	nt
COc1cc(COc2cc(N)c(Cl)cc2C(=O)CCC2CCN(CCNS(C)(=O)=O)CC2)cc(OC)c1	-24%	4.6%	nt	nt	nt
COc1ccc(CC(C(=O)Nc2cc(C)ccc2C)/C(N)=N/O)cc1 (stereo not drawn)	-4%	0.3%	3.8e-08	i	i
C=CCNc1nc(-c2ccc(OC)cc2OC)cs1	-12%	1.5%	4.7e-09	i	i
Cc1c(N)cccc1Cl	1%	0.3%	nt	nt	nt

Later entries:
SMILES	TSHR ag	AID923	A647 fluor	A488 autofl	Resorufin autofl
Cc1ccccc1N1OC2C(=O)N(c3ccc(F)cc3)C(=O)C2C1c1ccccn1 (stereo not drawn)	?	-0.1%	3.6e-08	i	i
CCc1nnc(SCC(=O)NC2CCCCC2)nc1CC	19%	1.4%	1.6e-08	i	i
COC(=O)CN(c1nc(C)c(Br)c(OC)n1)S(=O)(=O)c1ccc(C)cc1	nt	nt	?	i	i
Cn1c(=O)c2c(nc(CN3CCN(C(=O)c4ccco4)CC3)n2CCc2ccccc2)n(C)c1=O	nt	0.0%	1.9e-08	i	i
COC(=O)c1ccccc1NC(=O)c1sc(=S)n(C)c1N	-25%	0.0%	1e-09	i	i
COc1ccc(O[C@H]2C=C[C@@H](c3ccccc3)O[C@H]2COC(=O)CC/C(C)=N\O[C@@H](C)c2cn([C@H]3COC[C@H]3O)nn2)cc1	-10%[11.4 µM]	-0.7%[11.5 µM]	nt	nt	nt
O=C(NCc1ccccn1)Nc1ccc2c(c1)OCO2	-2%	-1.8%	5.6e-08	i	i
COc1ccc(CNS(=O)(=O)c2ccc(S(=O)(=O)N3CCCCC3)cc2)cc1	-14%	-2.2%	2.2e-08	i	i
Cc1cc2ccccn2c1C(=O)c1ccncc1	-2%	-2.4%	3e-08	i	i
COc1ccc(-c2oc3cc(OC)c(OC(C)=O)c(OC)c3c(=O)c2OC)cc1OC(C)=O	-2%	9.9%	1.3e-08	i	i
COc1ccc(C2CC(c3cccc(Cl)c3)n3nc(N)nc3N2)cc1 (stereo not drawn)	8%	-1.9%	nt	nt	nt
CCOc1cc(C2C(C(=O)OCC(C)C)=C(C)N=C3SCCC(=O)N32)ccc1OC(C)=O (stereo not drawn)	0%	1.9%	1e-09	i	i
Cc1ccc(N(CC(=O)NC2CCCC2)C(=O)CCCC(=O)Nc2ccccn2)cc1C	2%	0.0%	1e-09	i	i
CCOC(=O)c1[nH]c2ccccc2c1NC(=O)CCN1CCN(C(=O)OCC)CC1	nt	nt	7.6e-09	i	i
CCOc1ccc(CCNC(=O)c2nnc(Cc3ccc(F)cc3)o2)cc1OCC	-1%	-0.3%	nt	nt	nt
COC(=O)Nc1nnc(CCc2ccccc2)s1	8%	0.7%	5.2e-09	i	i
Cc1ccc(C)c(N2CCN(C(=O)CN(C)S(=O)(=O)c3cnc[nH]3)CC2)c1	-4%	2.6%	1.7e-08	i	i
Cc1cc(C)c(C(N)=O)c(NCCc2ccccc2)n1	-10%	-0.8%	8.9e-09	i	i
CCCCCCn1c(N2CCC(C(N)=O)CC2)nc2c1c(=O)n(C)c(=O)n2C	3%	-0.4%	9e-09	i	i
Cc1cc(=O)[nH]c2c(C)c(Cl)ccc12	1%	-0.7%	1.6e-09	i	i
CCCN(CCC)C(=O)CSc1nc2ccccc2c(=O)n1C1CCCC1	?	0.2%	1.1e-08	i	i
COc1ccc(OCc2nn3c(-c4cccc(OC)c4)nnc3s2)cc1	?	0.5%	2.1e-08	i	i
O=C1OC(C2=CCCCC2)=NC12CC2	3%[11.4 µM]	1.1%[11.5 µM]	nt	nt	nt
COc1cc(CN2CCN(CCOCCO)CC2)cc(OC)c1OC	3%	-0.2%	nt	nt	nt
CCN(CCO)Cc1cc(=O)oc2c(C)c(C)ccc12	10%	0.2%	3.2e-08	i	i
COC(=O)c1ccc(-n2c(C)cc(/C=N/n3cnnc3)c2C)cc1	9%	0.6%	nt	nt	nt
O=C1CSC2=NCN(c3ccc4c(c3)OCO4)CN12	-4%[11.4 µM]	-0.7%	nt	nt	nt

Profiles, looked up by structure. Screens in order: TSHR ag | AID923 | A647 fluor | A488 autofl | Resorufin autofl
Cc1cc(NC(=O)c2cc(CC(C)C)on2)n(-c2ccccc2)n1 is listed as 15% | -1.9% | nt | nt | nt
COC(=O)CN(c1nc(C)c(Br)c(OC)n1)S(=O)(=O)c1ccc(C)cc1 is listed as nt | nt | ? | i | i
CCN1C(=O)c2ccccc2S(=O)c2ccc(C(=O)NCc3ccccn3)cc21 (stereo not drawn) is listed as 4% | 5.5% | nt | nt | nt

Not all compounds are listed. The share of hits here may be higher or lower than overall.
